# Mtb H37Rv – Confirmatory growth inhibition assay against Mycobacterium tuberculosis H37Rv, potency (AID 1949) | most inactive calls were filed without a number and no value below 0 was filed | inhibition, % at 10 µg/mL, or IC50 in µg/mL where a hit was titrated | 100,000 tested, 1.6% active;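 active = confirmed in a dose series; inconclusive = about 50% or more but not retested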;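 also: bacteria grown 7 days with compound before Alamar blue readout; 0% = untreated bacteria and 100% = reference antibiotic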
# Starred values were filed as active, the others as inactive; i = inactive; ? = inconclusive. The list is partial; rates above refer to the full screens.
SMILES,Mtb H37Rv
CCCN1C(=O)c2ccc(C(=O)Nc3cc(C)on3)cc2C1=O,i
CCOC(=O)C1CCN(C(=O)CN(c2ccc(C)cc2)S(=O)(=O)c2ccc(F)cc2)CC1,i
Cc1ccc(S(=O)(=O)N(CC(=O)N2CCN(C)CC2)c2cccc(Cl)c2)cc1,i
COC(=O)Nc1nc(-c2ccc(F)cc2)c(C)s1,i
COc1ccc(Cl)cc1N(CC(=O)Nc1ccccc1C(=O)NC(C)c1ccccc1)S(C)(=O)=O (stereo not drawn),i
Cc1ccccc1NC(=O)CN(c1cccc(C)c1C)S(=O)(=O)c1ccccc1,3%
CCCOc1ccc2c(C)cc(=O)oc2c1C,i
COc1ccc(C2(C(=O)Nc3c(Cl)cccc3Cl)CCCC2)cc1OC,i
Cc1ccc(S(=O)(=O)N(CC(=O)Nc2ccccc2C(=O)O)c2cccc(C)c2)cc1,i
Cc1ccc(N2CCN(C(=O)N3CCCC3)CC2)cc1C,i
CCc1cccc(C)c1NC(=O)C1COc2ccccc2O1 (stereo not drawn),3%
CCCCC(=O)Nc1ccc(N2CCN(C(=O)CCC)CC2)c(Cl)c1,15%
Cc1ccc(S(=O)(=O)NCCC2=CCCCC2)cc1[N+](=O)[O-],i
Cc1ccc(C(=O)NC(C)c2ccccc2)c(C)c1 (stereo not drawn),i
Cc1ccc(S(=O)(=O)/N=C(\c2ccccc2)N(C)S(=O)(=O)c2ccc(C)cc2)cc1,i
O=C(O)c1ccc(COc2cccc(Cl)c2)o1,i
CCn1cc(Br)c(C(=O)Nc2ccc(C)c(C)c2)n1,i
O=C(NCC1COc2ccccc2O1)c1ccc(NC(=O)c2ccccc2)cc1 (stereo not drawn),i
COc1ccc(/C=C(/C#N)S(=O)(=O)c2ccccc2)cc1Br,i
CC(C)(C)NCc1ccccc1OCC(=O)NCCc1ccccc1,i
CC(C(=O)NC1CCCCC1)N(c1ccc(Cl)cc1)S(C)(=O)=O (stereo not drawn),i
COc1ccc(OC)c(C(=O)c2ccc(C(=O)NCc3nc(-c4ccccc4)cs3)cc2)c1,i
CCn1c(-c2cc(Br)ccc2O)n[nH]c1=S,i
Cc1cc(C)cc(C(=O)Nc2ccc(Cc3ccncc3)cc2)c1,5%
COc1cccc(C2C(C(=O)Nc3cccc(C(F)(F)F)c3)=C(C)NC3=C2C(=O)CCC3)c1OC (stereo not drawn),23%

# Of the compounds above, these have an aryl methoxy group.
SMILES,Mtb H37Rv
COc1ccc(Cl)cc1N(CC(=O)Nc1ccccc1C(=O)NC(C)c1ccccc1)S(C)(=O)=O (stereo not drawn),i
COc1ccc(C2(C(=O)Nc3c(Cl)cccc3Cl)CCCC2)cc1OC,i
COc1ccc(/C=C(/C#N)S(=O)(=O)c2ccccc2)cc1Br,i
COc1ccc(OC)c(C(=O)c2ccc(C(=O)NCc3nc(-c4ccccc4)cs3)cc2)c1,i
COc1cccc(C2C(C(=O)Nc3cccc(C(F)(F)F)c3)=C(C)NC3=C2C(=O)CCC3)c1OC (stereo not drawn),23%

# Continuation:
SMILES,Mtb H37Rv
COC(=O)c1ccccc1NC(=O)CSc1nnc(-c2cccnc2)n1-c1ccccc1,i
CC(C)CN1C(=O)c2ccc(NC(=O)c3ccccc3F)cc2C1=O,i
CC(C)Oc1ccc(-c2cc(C(=O)N3CCN(C)CC3)c3ccccc3n2)cc1,i
Clc1ccc2nc3c4ccccc4c4ccccc4c3nc2c1,2%
O=C1c2ccccc2C(=O)N1CCCCN(C(=O)c1ccccc1Cl)c1ccc(Cl)cc1,i
O=C(CSc1nnc(Cc2ccccc2)o1)NC1CC2CCC1C2 (stereo not drawn),i
Cc1cccc2sc(NS(=O)(=O)c3ccccc3)nc12,i
O=C(Oc1ccccc1)c1cccc(N2C(=O)CCC2=O)c1,i
O=S(=O)(c1ccc2ccccc2c1)N1CCc2ccccc21,i
CCCn1c(Cc2ccccc2)nnc1SCC(=O)N1CCOCC1,0%
Cc1ccccc1OCC(=O)OCc1ccc(Br)cc1,48%
O=C(Cc1ccccc1)Nc1cccc([N+](=O)[O-])c1,i
COC(=O)c1c(NC(=O)c2cccs2)sc(C)c1C,i
COc1ccc(C2=NN(c3nc4ccccc4s3)C(=O)C2)cc1,15%
O=C(c1ccc(Cl)cc1Cl)N1CCCCCC1,0%
Brc1ccc2ncnc(N3CCCCCC3)c2c1,i
COc1ccc(C(=O)NCC23C=CC(O2)C2C(=O)N(Cc4ccccc4)C(=O)C23)cc1 (stereo not drawn),i
COc1ccc(C(=O)Nc2cccc([N+](=O)[O-])c2)cc1Br,i
CC(=O)c1cccc(NC(=O)c2ccc(C)c(Br)c2)c1,?
CC(=O)COc1cc(C)cc2oc(=O)c(C)c(C)c12,i
CC1CCCc2sc(NC(=S)NC(=O)c3ccccc3)c(C#N)c21 (stereo not drawn),0.94µg/mL*
COc1c(C)cc(Br)cc1C(=O)Nc1nc(-c2cccc([N+](=O)[O-])c2)cs1,3%
O=C(NN1C(=O)C2C(C1=O)C1c3ccccc3C2C2C=CC=CC21)c1ccncc1 (stereo not drawn),i
O=S(=O)([N-]c1nc2ccccc2nc1-[n+]1ccccc1)c1ccc(Cl)cc1,i
C=CCn1c(SCC(=O)Nc2ccc(F)cc2)nnc1-c1ccncc1,i

# Following part:
SMILES,Mtb H37Rv
COc1ccc(C(=O)NC(C)C)cc1I,i
O=C(Nc1ccccc1C(=O)N1CCOCC1)c1ccc(CN2CCc3ccccc3C2)cc1,i
COC(=O)c1ccc(NC(=S)Nc2ccc(OC)cc2OC)cc1,i
COc1ccccc1NC(=O)C1CC2c3ccccc3C1c1ccccc12 (stereo not drawn),i
O=C(COc1ccc(NC(=O)c2ccc(Cl)cc2)cc1)c1ccccc1,i
CCOC(=O)CSc1nc2sc3c(c2c(=O)n1-c1ccccc1C)CC(C)(C)OC3,i
COc1cccc(C2CC(c3cccs3)=NN2C(=S)Nc2ccccc2)c1OC (stereo not drawn),1%
N#C/C(=C\c1ccc(-c2nc3ccccc3s2)o1)C(N)=S,i
CCCCNCc1cc(Br)c(OCC(=O)NC(C)(C)C)c(OC)c1,i
COc1ccc(Cl)cc1C(=O)Nc1cc(C)ccc1C,i
CCC1(C)CCC(CCN)(c2ccc(F)cc2)CO1 (stereo not drawn),5%
CC1CCc2c(sc3nc4c5ccccc5c(-c5ccccc5)nn4c(=O)c23)C1 (stereo not drawn),i
CC(=O)c1cccc(N(CC(=O)NCC2CCCO2)S(C)(=O)=O)c1 (stereo not drawn),i
O=c1cc(CSc2nc3ccccc3c(=O)n2-c2ccc(F)cc2)c2ccccc2[nH]1,i
COc1ccc(-c2cc(-c3ccccc3)nc(SCC(=O)NC3CC3)c2C#N)cc1,0%
O=C1CC(c2ccccc2)c2c(ccc3ccccc23)O1 (stereo not drawn),i
NC(=O)CN1CCN(C(=S)Nc2ccccc2)CC1,i
CCC(CC)c1nnc(NC(=O)CN2C(=O)c3ccccc3C2=O)s1,i
Cc1ccc(OCCCC(=O)Nc2ccc3c(c2)OCO3)c(C)c1,i
CCCc1ccc(OCC(=O)Oc2ccc(C(=O)Nc3ccc(C)cc3)cc2)cc1,9%
Oc1ccccc1C(O)(c1ccccc1)c1ccccc1,i
O=C(c1ccc(F)cc1F)N1CCCc2ccccc21,i
COc1ccc(CCCc2nnc(SCC(=O)Nc3ccc(Br)c(C)c3C)n2C)cc1,i
COc1ccc(Cl)cc1C(=O)Nc1ccccc1NC(C)=O,3%
Nc1ccc2nc(-c3cc(O)ccc3N)[nH]c2c1,5%

# (cont.)
SMILES,Mtb H37Rv
CC(C)n1c(-c2cccc([N+](=O)[O-])c2)nc(=S)c2c1CCCC2,i
Cc1cccc(-n2c(/C=C\c3cccc([N+](=O)[O-])c3)nc3ccccc3c2=O)c1,i
CC1CCN(S(=O)(=O)c2ccc(NC(=O)c3cccs3)cc2)CC1,i
COc1ccc2c(c1)N(C(=O)CN1C(=O)C3CCCCC3C1=O)C(C)(C)C=C2C (stereo not drawn),1%
NCCNc1ccc([N+](=O)[O-])cc1C(=O)Nc1cccc(C(F)(F)F)c1,i
O=C(CNC(=O)c1ccccc1)Nc1cccc(Cl)c1,i
CCN(C(=S)Nc1ccccc1F)C1CCCCC1,i
CC(C)c1ccccc1NC(=O)CSc1nnc(CCCOc2ccc(Cl)cc2Cl)o1,34%
CC(C)c1ccc(S(=O)(=O)Nc2cc(Br)c(O)c3ccccc23)cc1,i
CCOC(=O)C1=C(C)N(CCc2ccccc2)C(=O)NC1c1cc(Br)c(O)c(OC)c1 (stereo not drawn),i
O=C1CCc2cc(OCc3ccc(Cl)cc3)ccc2O1,i
CCn1c(SCC(=O)Nc2nc(-c3ccccc3)cs2)nnc1-c1ccc(Cl)cc1,i
C#CCOc1cc(Br)c(CO)cc1OCC,6%
Cc1[nH]c2ccccc2c1C(=O)C(N)=O,i
CC(C)CC(=O)NCCC1=CCCCC1,i
O=C(Nc1cccc(C(=O)Nc2ccc(Br)cc2)c1)c1ccccc1,i
CC(C)NC(=O)Cn1cc(C(=O)C2CC2)c2ccccc21,i
O=C(CC1OCCN(Cc2ccccc2)C1=O)Nc1cc(Cl)cc(Cl)c1 (stereo not drawn),i
O=S1(=O)CCC(N2CCN(C/C=C/c3ccccc3)CC2)C1 (stereo not drawn),i
COc1ccc(S(=O)(=O)N2CCCCC2)cc1N(C)S(=O)(=O)c1ccccc1,i
COC(=O)c1ccc(OC(=O)c2ccc(C)c([N+](=O)[O-])c2)cc1,i
O=C(CSc1nc2ccc(Br)cc2c(=O)n1Cc1ccccc1)N1CCOCC1,i
CCOc1ccc(-n2nc3cc(C)c(NC(=O)c4ccc(Br)cc4)cc3n2)cc1,i
CCOc1cc(CO)cc(Cl)c1O,i
CCOc1ccccc1NC(=O)c1ccc(-n2cccn2)cc1,i

# Next part.
SMILES,Mtb H37Rv
CCc1nnc(NC(=O)c2ccccc2NC(=O)c2ccco2)s1,i
Cc1cccc(C(=O)N2CCC(Cc3ccccc3)CC2)c1[N+](=O)[O-],2%
O=C(c1cn(CCOc2ccccc2)c2ccccc12)C1CC1,i
Cc1ccc(CNC(=O)COc2cc(C)c(Br)c(C)c2)cc1,i
COc1ccc(NC(=O)c2ccc(CN3CCOCC3)cc2)cc1OC,i
CCC1(C)CC(CCN(Cc2ccco2)C(C)=O)(c2ccccc2)CCO1 (stereo not drawn),i
Cc1ccc(CNC(=O)CN(c2cccc(C)c2)S(C)(=O)=O)cc1,i
COc1ccc(N2C(=O)CC(N3CCC(C(O)(c4ccccc4)c4ccccc4)CC3)C2=O)cc1 (stereo not drawn),i
CCOC(=O)c1ccc(N2C(=O)CC(n3c(C)nc4ccccc43)C2=O)cc1 (stereo not drawn),i
CCc1ccc(CNCCCCO)cc1,i
COc1cccc(C(c2c(C)[nH]c3ccccc23)c2c(C)[nH]c3ccccc23)c1OCC(=O)O,1%
Cc1ccc(Nc2nc(=O)[nH]nc2C)cc1,i
CN(C)c1ccc(Nc2nc3ccccc3nc2NS(=O)(=O)c2cccs2)cc1,i
CC1(C)NC(=O)N(CCCOc2cccc(Oc3ccccc3)c2)C1=O,0%
CCOc1ccc(C(=O)Nc2ccc3c(c2)OCCO3)cc1OCC,i
COc1ccc(N(CC(=O)NC2CCCCC2)S(C)(=O)=O)cc1Cl,i
O=[N+]([O-])c1ccc(NC(=S)Nc2ccc3c(c2)OCCO3)cc1,i
CCOc1ccc(C(=O)Nc2cccc3cccnc23)cc1Cl,i
CN=C(NS(=O)(=O)c1ccc(Cl)cc1)c1ccc(Cl)cc1,2%
COCCn1c(Sc2nc(C)cs2)nc2c1c(=O)[nH]c(=O)n2C,i
O=C(NC(=S)Nc1ccc(Br)cn1)c1ccc2ccccc2c1,i
Cc1cc(C)c(S(=O)(=O)N(CC(=O)N2CCOCC2)Cc2ccccc2)c(C)c1,i
CCCCC(=O)Nc1ccccc1Sc1ncnc2sc3c(c12)CCCC3,12%
Cc1ccc(CNC(=S)Nc2c(C)nn(Cc3ccccc3C)c2C)cc1,i
CCOc1c(Cl)cc(C(=O)N2CCN(c3ccccc3OC)CC2)cc1Cl,0%

# Structures shown so far that have a thiophene ring, fused or not (eight):
SMILES,Mtb H37Rv
COC(=O)c1c(NC(=O)c2cccs2)sc(C)c1C,i
CC1CCCc2sc(NC(=S)NC(=O)c3ccccc3)c(C#N)c21 (stereo not drawn),0.94µg/mL*
CCOC(=O)CSc1nc2sc3c(c2c(=O)n1-c1ccccc1C)CC(C)(C)OC3,i
COc1cccc(C2CC(c3cccs3)=NN2C(=S)Nc2ccccc2)c1OC (stereo not drawn),1%
CC1CCc2c(sc3nc4c5ccccc5c(-c5ccccc5)nn4c(=O)c23)C1 (stereo not drawn),i
CC1CCN(S(=O)(=O)c2ccc(NC(=O)c3cccs3)cc2)CC1,i
CN(C)c1ccc(Nc2nc3ccccc3nc2NS(=O)(=O)c2cccs2)cc1,i
CCCCC(=O)Nc1ccccc1Sc1ncnc2sc3c(c12)CCCC3,12%

# (listing goes on)
SMILES,Mtb H37Rv
CCCC(=O)N1CCN(c2ccc(NC(=S)NC(=O)c3cc4ccccc4o3)cc2Cl)CC1,i
COc1ccccc1-c1cc(C(=O)NCCCN2CCOCC2)c2ccccc2n1,3%
CSc1ccc(C2C(C(C)=O)C(=O)CC(C)(O)C2C(C)=O)cc1 (stereo not drawn),i
Cc1[nH]c2ccccc2c1Cc1n[nH]c(=S)n1C,i
O=C(CC(c1ccc(Cl)cc1)S(=O)(=O)c1ccccc1)c1ccc(F)cc1 (stereo not drawn),?
CCCn1nnc(NC(=O)c2cc3ccccc3o2)n1,3%
O=C(NCc1cccs1)c1ccc(Cl)s1,2%
CC(C)(C)NS(=O)(=O)c1ccc(NS(=O)(=O)c2ccc([N+](=O)[O-])cc2)cc1,i
CCOCCCNS(=O)(=O)c1ccccc1[N+](=O)[O-],i
O=S(=O)(c1cccc(NC(=S)NCc2ccco2)c1)N1CCOCC1,i
Cc1cc(Br)ccc1OCC(=O)NCC1CCCO1 (stereo not drawn),i
COc1ccccc1Nc1nc(N)nc(CN2CCN(c3ccccc3F)CC2)n1,?

# Assay outcomes as filed in PubChem.
